Mtb H37Rv: Confirmatory growth inhibition assay against Mycobacterium tuberculosis H37Rv, potency (AID 1949); most inactive calls were filed without a number and no value below 0 was filed; one-dose inhibition, % at 10 µg/mL; IC50 in µg/mL for titrated hits; actives 1.6% (n = 100,000);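 active = confirmed in a dose series; inconclusive = about 50% or more but not retested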;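 note: bacteria grown 7 days with compound before Alamar blue readout; 0% = untreated bacteria and 100% = reference antibiotic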
Active calls of the source: *; i = inactive; ? = inconclusive. Only part of the results is shown; the hit share may differ from the screen's.

SMILES | Mtb H37Rv
CC1Cc2ccccc2N1S(=O)(=O)c1cccc2nsnc12 (stereo not drawn) | i
NC(=O)C1(N2CCCCC2)CCN(Cc2nc3ccccc3c(=O)[nH]2)CC1 | i
CNC(=S)Nc1ccc(Nc2ccccc2)cc1 | 34.8%
Cc1ccc(NS(=O)(=O)c2ccc(Cl)cc2)nc1 | i
CC(=O)Oc1ccc(NC(=O)CSc2ccccc2)cc1 | 22.5%
O=S1(=O)C=C(Sc2nc3ccccc3s2)c2ccccc21 | <0.1µg/mL*
CCN(CC)CCNc1ccc(C(F)(F)F)cn1 | i
COc1ccc(S(=O)(=O)N2CCC(C(=O)Nc3ccc(F)cc3)CC2)cc1 | 2.6%
CCCS(=O)(=O)N1CCN(Cc2ccccc2OC)CC1 | i
O=CN1Cc2ccccc2-c2ccccc2C1 | i
CC(=O)N(C(C)=O)c1ccc(C(c2ccccc2)(c2ccccc2)c2ccccc2)cc1 | i
CCn1cc(C(C)NC(=S)Nc2ccc(F)c(Cl)c2)c(C)n1 (stereo not drawn) | i
O=C(Nc1cc(C(F)(F)F)ccc1OCC(F)(F)F)c1ccccc1O | 19.8%
Cc1nc(SCC(=O)Nc2cc(Cl)cc(Cl)c2)[nH]c(=O)c1Cc1ccccc1 | i
C=CCn1c(SCC(=O)Nc2ccc(C(F)(F)F)cc2)nnc1-c1ccncc1 | 0.3%
O=C(NCCc1ccccc1)c1cccc2c1-c1ccccc1C2=O | 1.6%
O=C(CSc1nnnn1-c1cccc2ccccc12)N1CCc2ccccc21 | 2.9%
COc1ccc(C(=O)NCC2(c3ccccc3)CCCC2)cc1[N+](=O)[O-] | i
O=C(O)c1cn(-c2ccccc2)nc1-c1cccc2ccccc12 | 5.5%
Cc1ccc(OCCN2CCNCC2)c(C)c1 | 1.7%
O=C(NC1CCCCC1)C(=O)c1c[nH]c2ccccc12 | i
CCOc1cc(S(=O)(=O)N2CCCC2)ccc1Cl | i
COc1ccc(NC(=O)c2ccccc2NC(=O)Cc2ccccc2)cc1 | 1.1%
CCOC(=O)C1=NN(c2ccccc2)C(=O)C1OC(C)=O (stereo not drawn) | i
OC(COc1ccc(Cl)cc1Cl)CN1CCc2ccccc2C1 (stereo not drawn) | 8.1%
CCOc1c(I)cc(C=O)cc1OC | i
C=CCc1ccc(OCCN2CCCCCC2)c(OC)c1 | i
COC(=O)c1cc(OC)c(OC)cc1NC(=O)COc1ccccc1Cl | i
Cc1ccc(C)c(C(=O)NCCCc2ccccc2)c1 | 1.4%
O=C1C2C3C=CC(C3)C2C(=O)N1CCC(=O)N1c2ccccc2Sc2ccccc21 (stereo not drawn) | i
Nn1c(SCc2ccccc2Br)nnc1C(F)(F)F | i
Cc1ccc(Cl)cc1NC(=O)C1CC(=O)N(C(C)C)C1 (stereo not drawn) | 1.5%
CS(=O)(=O)N(CC(=O)NC1CCCCCC1)c1cccc([N+](=O)[O-])c1 | i
CCc1ccc(NC(=O)CSc2nnc(-c3ccc(OC)cc3)o2)cc1 | 42.0%
Cc1ccc(S(=O)(=O)NC(C)C(=O)Nc2ccc(S(N)(=O)=O)cc2)cc1 (stereo not drawn) | i
O=C(Oc1ccccc1[N+](=O)[O-])c1ccccc1Br | i
Cc1ccc2oc(-c3cc(NC(=O)c4ccccc4F)ccc3Cl)nc2c1 | i
O=c1c2ccccc2nc(-c2ccco2)n1-c1nccs1 | i
Fc1ccc(-c2nn3c(-c4ccccc4)nnc3s2)cc1 | i
CC(=O)c1ccc(NC(=O)C2C3C=CC(C3=C(c3ccccc3)c3ccccc3)C2C(=O)O)cc1 (stereo not drawn) | ?
CC(=O)Nc1ccc(-c2nnc(SCc3c(C)cc(C)cc3C)n2C)cc1 | i
N#Cc1cn(-c2ccccc2)nc1-c1cc2ccccc2oc1=O | i
CCN(c1ccccc1)S(=O)(=O)c1ccc(NC(=O)c2cccs2)cc1 | i
COc1ccc(-c2nc(SCC(=O)Nc3nc(-c4ccccc4)c(C)s3)n[nH]2)cc1 | i
CNC(=O)CN(c1ccc(Cl)c(C(F)(F)F)c1)S(=O)(=O)c1ccccc1 | i

Five compounds out of the list, sorted by molar mass, lowest first:
SMILES | Mtb H37Rv
Cc1ccc(NS(=O)(=O)c2ccc(Cl)cc2)nc1 | i
CCOC(=O)C1=NN(c2ccccc2)C(=O)C1OC(C)=O (stereo not drawn) | i
Nn1c(SCc2ccccc2Br)nnc1C(F)(F)F | i
CS(=O)(=O)N(CC(=O)NC1CCCCCC1)c1cccc([N+](=O)[O-])c1 | i
Cc1ccc(S(=O)(=O)NC(C)C(=O)Nc2ccc(S(N)(=O)=O)cc2)cc1 (stereo not drawn) | i

Two of the compounds above, as labelled records:
CS(=O)(=O)N(CC(=O)NC1CCCCCC1)c1cccc([N+](=O)[O-])c1
- Mtb H37Rv = i
CCc1ccc(NC(=O)CSc2nnc(-c3ccc(OC)cc3)o2)cc1
- Mtb H37Rv = 42.0%

The list goes on.
SMILES | Mtb H37Rv
CCOc1ccc(-c2c3cc(O)c(=O)cc-3oc3cc(O)c(O)cc23)cc1 | 8.7%
Cc1cccc(NC(=S)N2CCN(c3ccccc3F)CC2)c1 | 4.2%
O=C(NC(=S)Nc1ccc(S(=O)(=O)N2CCOCC2)cc1)c1ccc(Br)o1 | i
COc1ccccc1CC(=O)Nc1ccccc1C(C)(C)C | i
COc1ccccc1NC(=O)C(=O)NCc1ccccc1C | i
CCOC(=O)C1CCN(C(=O)CN(c2cccc(Br)c2)S(C)(=O)=O)CC1 | i
CCOc1ccc(NC(=O)Nc2cccc(C(C)=O)c2)c([N+](=O)[O-])c1 | i
CCc1ccc(NC(=O)C2C(c3ccccc3)C2(Cl)Cl)cc1 (stereo not drawn) | 9.9%
CCC(C)c1ccccc1OCC(=O)Nc1cccc(C(=O)O)c1C (stereo not drawn) | 0.8%
COC(=O)c1ccccc1NC(=O)C12CC3CC(CC(C3)C1)C2 | i
Cc1c(Cl)cccc1NC(=S)NCCO | 5.0%
COc1cc(CNc2ccc3[nH]c(=O)[nH]c3c2)ccc1OCc1cccs1 | i
COc1ccc2c(c1)c(=O)oc1cc(OCc3cccc(Br)c3)ccc12 | 6.0%
Cc1ccc2nc(/C(C#N)=C\c3ccc(Br)o3)[nH]c2c1 | 4.6%
Cc1ccnc(NC(=O)Nc2ccc(F)cc2)c1 | i
Cc1ccc(C)c(N(CC(=O)NCCSCc2ccccc2)S(=O)(=O)c2ccccc2)c1 | i
O=C(CSc1nnc(-c2cccc(Br)c2)o1)c1ccc([N+](=O)[O-])cc1 | 0.7%
Cc1ccc(SC(C)C(=O)Nc2ccccc2C)cc1 (stereo not drawn) | i
O=C1NCCCCC1NC1CC(=O)N(c2ccccc2)C1=O (stereo not drawn) | 2.2%
CCN1C(=O)C2C(C1=O)N1C(c3ccccc3)C3C(=O)N(CC)C(=O)C3N1C2c1ccccc1 (stereo not drawn) | i
COc1ccccc1OCC(=O)c1ccc(C)c(C)c1 | 12.8%
Cc1ccccc1OCc1nnc(SCC(=O)Nc2ccc3c(c2)oc2ccccc23)n1C | i
O=C(Nc1ccc(F)cc1)Nc1cccc(Br)c1 | i
CCc1ccccc1NC(=O)c1ccc(N(C)S(=O)(=O)c2ccc(OC)c(OC)c2)cc1 | i
COc1ccc(NC(=S)NC(=O)c2c(Cl)ccc(Cl)c2OC)cc1 | i
COc1ccccc1CC(=O)Nc1cccc2ccccc12 | i
CCc1cc(=O)oc2cc(OCc3cc(C)ccc3C)c(Cl)cc12 | 0.6%
COc1ccc(CNC(=O)C(=O)NC2CC(C)(C)NC(C)(C)C2)cc1 | 4.4%
C=CCOc1nc(N2CCOCC2)nc(N2CCOCC2)n1 | 3.2%
CCOc1ccccc1Nc1nc(C)cc(C)n1 | i
COc1ccc(OC)c(NC(=O)c2ccc(N(Cc3ccc(Cl)cc3)S(C)(=O)=O)cc2)c1 | i
O=C(Nc1cccc(F)c1)c1cccc(F)c1F | 2.7%
COc1ccccc1C(=O)N/C(=C/c1ccc2c(c1)OCO2)C(=O)Nc1cccc(C(=O)O)c1 | i
CCOc1cc(C(=O)NC(C)C2CCCO2)cc(OCC)c1OCC (stereo not drawn) | i
O=C(CSc1nnc2scc(-c3ccccc3)n12)Nc1ccccc1F | i
COc1ccc(NC(=O)N2CCN(Cc3ccc(Cl)c(Cl)c3)CC2)cc1OC | i
O=C(Nc1ccc([N+](=O)[O-])cn1)c1cc(-c2ccc3c(c2)OCO3)nc2ccccc12 | i
Cc1cc(=O)n(C)c(=O)n1CCCCO | i
COC(=O)c1cc(Br)ccc1NC(=O)c1ccco1 | i
C=CCSc1nnc2n(-c3cccc(C)c3)c(=O)c3c(n12)-c1ccccc1CC31CCCCC1 | 11.1%
CC(=O)Nc1cccc(NC(=O)c2ccc(Br)s2)c1 | i
COC(C(=O)Nc1ccc(S(=O)(=O)Nc2ccc(Br)cc2)cc1)c1ccccc1 (stereo not drawn) | i
Cc1nnc(NC(=O)C2CC(=O)N(Cc3ccccc3)C2)s1 (stereo not drawn) | i
Cc1ccccc1OCc1nnc(SCC(=O)NCC(=O)c2ccccc2)o1 | i
CC(=O)Oc1ccc(C(=O)Nc2ccccc2C(C)(C)C)cc1 | i

The final two compounds of the part before open the next one:
SMILES | Mtb H37Rv
Cc1ccccc1OCc1nnc(SCC(=O)NCC(=O)c2ccccc2)o1 | i
CC(=O)Oc1ccc(C(=O)Nc2ccccc2C(C)(C)C)cc1 | i
COc1ccc(CCNc2ncnc3sc(C)cc23)cc1OC | 2.2%
COc1ccc(C(=O)NCc2ccc(-c3nc4ccccc4s3)cc2)cc1Br | 0.8%
Cc1ccc(C(=O)N2CCN(c3ccc(NC(=O)COc4cccc(C)c4C)cc3)CC2)cc1 | i
CC(C)c1ccc(Oc2coc3cc(O)ccc3c2=O)cc1 | 0.8%
Cc1nnc(SCC(=O)N2CCC(c3noc4ccc(F)cc34)CC2)s1 | i
CCOC(=O)c1c(NC(=O)c2ccc(OC)cc2)sc2c1CC(C)(C)OC2 | i
Cc1ccccc1Cn1c(C)nc2ccccc21 | i
CCOc1ccc(NC(=O)c2ccc(NS(=O)(=O)c3cccc4cccnc34)cc2)cc1 | i
CCOc1ccc(NS(=O)(=O)c2ccc(NC(=O)COc3ccc(OC)cc3)cc2)cc1 | i
COc1ccc(N(C)C(=O)c2ccco2)cc1 | i
COc1ccc(N2CCN(CC(O)COCc3ccccc3)CC2)cc1 (stereo not drawn) | 2.7%
COc1cccc2cc(C(=O)Nc3ccc(Br)cc3)c(=O)oc12 | 19.2%
S=C(Nc1cccnc1)N(CCc1ccccc1)Cc1ccccc1 | 0.8%
Cc1ccc(C)n1-c1ccc(N2CCN(c3ccccc3)CC2)c([N+](=O)[O-])c1 | 13.1%
Cc1c(CC(=O)O)c(=O)oc2c(C)c(OCC(=O)O)ccc12 | i
Cc1cc(Br)ccc1OCC(=O)NC(C)(C)C | i
COc1ccc(NC(=O)CSc2nnc3sc4ccccc4n23)cc1 | i
N#Cc1ccccc1Cn1cc(C(=O)c2cccs2)c2ccccc21 | i
Cc1cc(=O)oc2cc(NC(=S)N3CCCC3)ccc12 | i
O=[N+]([O-])c1cccc(NS(=O)(=O)Cc2ccccc2)c1 | i
Cc1nc2ccc(C(=O)OCc3ccc(S(=O)(=O)Cc4ccccc4)cc3)cc2nc1C | i
Cc1occc1C(=O)NC1CCCCCC1 | 2.1%
COc1c(C)cc(Br)cc1C(=O)Nc1cccc(F)c1 | 11.0%
O=C(Nc1ccccc1Cl)c1ccc(COc2ccccc2Br)cc1 | i
COC(=O)c1ccc(C(=O)OC)c(NC(=O)Nc2cccc(C(C)=O)c2)c1 | i
N#Cc1ccccc1CSc1nnc(NC(=O)CCc2ccccc2)s1 | i
COc1ccc(OCC(=O)NNC(=O)C(c2ccccc2)c2ccccc2)cc1 | 0.3%
COc1ccc(NC(=O)c2cc3c(C)nn(-c4ccccc4)c3s2)c(OC)c1 | 0.1%
Cn1cccc1CC(=O)NNC(=S)NCc1ccc(Cl)cc1 | i
COc1ccc(-c2cc3ccccn3c2C)cc1OC | i

7 compounds drawn at random from the list so far:
SMILES | Mtb H37Rv
O=C(Nc1ccccc1Cl)c1ccc(COc2ccccc2Br)cc1 | i
COc1ccc(NC(=O)c2cc3c(C)nn(-c4ccccc4)c3s2)c(OC)c1 | 0.1%
COc1ccc(OCC(=O)NNC(=O)C(c2ccccc2)c2ccccc2)cc1 | 0.3%
Cc1cc(Br)ccc1OCC(=O)NC(C)(C)C | i
COC(=O)c1ccc(C(=O)OC)c(NC(=O)Nc2cccc(C(C)=O)c2)c1 | i
N#Cc1ccccc1Cn1cc(C(=O)c2cccs2)c2ccccc21 | i
O=[N+]([O-])c1cccc(NS(=O)(=O)Cc2ccccc2)c1 | i

Further results follow.
SMILES | Mtb H37Rv
O=C(CSc1ccccc1)N1CCN(C(=O)c2ccco2)CC1 | i
CC(=O)c1ccc(COC(=O)CCC(=O)Nc2ccc(Br)c3cccnc23)cc1 | i
CCCCc1ccc(NC(=S)N2CCOCC2)cc1 | i
CN(C(=O)c1cncc(Br)c1)C1CCCCC1 | 0.5%
CC1CCc2sc3ncnc(Nc4ccc(N(C)C)cc4)c3c2C1 (stereo not drawn) | ?
CCn1c(SCC(=O)NC2CCCCC2C)nnc1-c1ccccc1C (stereo not drawn) | i
Cc1ccc(-c2noc(CN(C(=O)C(c3ccccc3)c3ccccc3)C(C)C)n2)cc1 | 19.8%
Fc1cccc(NC(=S)N2CCCC2)c1 | i
COC(=O)c1c(N)sc(C)c1-c1cc(C)ccc1C | 5.8%
O=C(Nc1cnn(Cc2c(F)cccc2Cl)c1)C1CCC1 | i
O=C(Nc1nnc(SCc2ccc(Cl)cc2)s1)C1CCCCC1 | i
COc1ccc(S(=O)(=O)N(C)CC(=O)N2CCN(c3ccc(F)cc3)CC2)cc1OC | i
COc1ccc(Cl)cc1NC(=O)Nc1cc(F)ccc1C | 4.9%
CC1CCCCN1CC(=O)Nc1ccc(Oc2ccccc2)cc1 (stereo not drawn) | i
O=C1CCCC2=C1C(c1ccc(F)c(Oc3ccccc3)c1)C1=C(CCCC1=O)N2 | 4.7%
Cc1cccc(-n2c(=O)c3c4c(sc3n3c(SCC(=O)Nc5cccc6ccccc56)nnc23)COC(C(C)C)C4)c1 (stereo not drawn) | 35.2%
COC(=O)c1ccc(NC(=O)CSc2nnc(CNC(=O)c3ccccc3)n2C)cc1 | i
Cn1c(=O)c2c(nc(Sc3ncnn3CC(=O)Nc3ccc(F)cc3)n2C)n(C)c1=O | i

Screening data (PubChem)
